CDC25B CDK2 inh = human CDC25B-CDK2/CyclinA binding inhibition; AID 1259370; P30305+P24941; z-score (no concentration beside the values); HTRF CDC25B-CDK2/CyclinA binding, anti-His/anti-Flag; hits give high values; 94,000 compounds, 0.72% hits;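 note: score is relative to mean and SD of negative controls; strong numbers were not always called active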
TAR Tat displ = HIV-1 TAR-Tat binding disruption; z-score (concentration not given with the values); HIV-1 TAR RNA, Tat peptide displacement FRET; hits give high values; 100,000 compounds, 0.6% hits;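 note: score is relative to mean and SD of negative controls; some compounds called inactive have numbers as strong as hits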
Active calls of the source: *; · = no result given; & = joins results of further samples.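 Rule for the calls: active = z-score from 3 up in half or more of its runs; inactive = the rest.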 An unsorted share of the library. About 0.97% of those tested had a hit in this group.

SMILES | CDC25B CDK2 inh | TAR Tat displ
O=C(CSc1ncnc2c1sc1cccc(F)c12)N1CCOCC1 | · | -0.33
Cc1c(C(=O)NCC(c2ccco2)N(C)C)oc2ccc(Br)cc12 (stereo not drawn) | -2.01 | -0.98
CCc1ccc(S(=O)(=O)NCCc2cn3ccsc3n2)cc1 | · | 0.6
CCSc1ncc(Cl)c(C(=O)Nc2ccc(Cl)cc2)n1 | -1.05 | 1.17
CN1C(=O)c2cc(C(=O)NCCc3cccs3)nn2CC1(C)C(=O)NC1CCCC1 (stereo not drawn) | · | 0.56
COC(=O)c1c(-c2ccc(F)cc2)noc1Nc1ccc2c(c1)OCCO2 | · | 0.77
N#Cc1c(-c2ccccc2)nc(SCC(=O)OCCc2ccccc2)[nH]c1=O | 0.89 | 0.45
Cc1nc2ccc(Cl)cn2c(=O)c1NC(=O)CC1CCCCC1 | · | 0.57
Cc1c(C(=O)NC2CCCCCC2)sc2ncn(CC(=O)N3CC(C)CC(C)C3)c(=O)c12 (stereo not drawn) | -5.17 | ·
CCS(=O)(=O)c1nc(S(=O)(=O)c2ccc(Cl)cc2)c(NCCCOC)s1 | 0.37 | -0.3
Cc1cc(C)nc(SCCn2c(N3CCOCC3)nc3c2c(=O)[nH]c(=O)n3C)n1 | -1.07 | 1.91
CCN(CCS(=O)(=O)c1ccc(Cl)cc1)C(=O)Nc1ccc(Cl)cc1 | -1.6 | ·
Cc1nn(CC(=O)NCCN2CCCCCC2)c(=O)c2cc3sccc3n12 | 0.66 | ·
NC(N)=N/N=C/c1ccc(Cl)cc1Cl | -1.15&0.68 | ·
C=C(C)c1cccc(C(C)(C)NC(=O)NCCc2ccccc2)c1 | -0.75 | -0.24
Cc1ccc(C2C(C#N)=C(SCC(=O)Nc3ccc(Br)cc3)NC3=C2C(=O)CCC3)o1 (stereo not drawn) | -6.74 | 0.08
Cc1ccc(Nc2nc(-c3ccccc3)cs2)nc1 | 1.96 | 1.19
O=S(=O)(c1ccccc1)c1cnc2ccc(F)cc2c1N1CCCC1 | -1.7 | -0.11
CCOC(=O)c1c(C)oc2ccc(OC(C)C(=O)OC)cc12 (stereo not drawn) | -0.44 | ·
O=[N+]([O-])c1ccc(C=Nc2cccc(-c3nnco3)c2)cc1 | -2.91 | ·
Cc1cc(C)c(-c2n[nH]c3c2C(c2cccc(Br)c2)N(Cc2ccco2)C3=O)c(O)c1 (stereo not drawn) | 1.05 | 0.06
Cc1cc2c(cc1S(=O)(=O)Nc1ccc(C(C)C)cc1)OCCN2C | · | 5.8
O=C1CCSc2ccc(S(=O)(=O)NCc3cccnc3)cc2N1 | · | 3.02
CCOC(=O)c1sc2ccccc2c1S(=O)(=O)Nc1ccccc1F | · | -0.79
CCC(Sc1nc(C)cc(C)n1)C(=O)NC1=NN=C(c2ccc(C)cc2)CS1 (stereo not drawn) | -7.69 | -0.77

3 entries already listed, ordered by molecular weight, ascending.
SMILES | CDC25B CDK2 inh | TAR Tat displ
Cc1ccc(Nc2nc(-c3ccccc3)cs2)nc1 | 1.96 | 1.19
Cc1nc2ccc(Cl)cn2c(=O)c1NC(=O)CC1CCCCC1 | · | 0.57
Cc1cc2c(cc1S(=O)(=O)Nc1ccc(C(C)C)cc1)OCCN2C | · | 5.8

Reformatted with values under each structure: six of the compounds above.
Second line of a record – CDC25B CDK2 inh	TAR Tat displ
Cc1nn(CC(=O)NCCN2CCCCCC2)c(=O)c2cc3sccc3n12
→ 0.66	·
NC(N)=N/N=C/c1ccc(Cl)cc1Cl
→ -1.15&0.68	·
C=C(C)c1cccc(C(C)(C)NC(=O)NCCc2ccccc2)c1
→ -0.75	-0.24
Cc1ccc(C2C(C#N)=C(SCC(=O)Nc3ccc(Br)cc3)NC3=C2C(=O)CCC3)o1 (stereo not drawn)
→ -6.74	0.08
Cc1ccc(Nc2nc(-c3ccccc3)cs2)nc1
→ 1.96	1.19
O=S(=O)(c1ccccc1)c1cnc2ccc(F)cc2c1N1CCCC1
→ -1.7	-0.11

Remaining list, next part.
SMILES | CDC25B CDK2 inh | TAR Tat displ
CCCS(=O)(=O)c1cscc1NC(=O)Nc1c(-c2c(Cl)cccc2Cl)noc1C | -0.51 | ·
CN(C)c1ccc(C2SCCN2C(=O)c2cc3ccccc3oc2=O)cc1 (stereo not drawn) | 0.58 | ·
COC(=O)c1ccc(CSc2nc3c(cnn3-c3ccc(F)cc3)c(=O)[nH]2)o1 | -0.61 | ·
CC(C)(C)C(=O)c1cn(CCOc2ccc(F)cc2)c2ccccc12 | -1.32 | 0.6
Cc1onc(-c2cccc(Br)c2)c1C(=O)O | -0.04 | 0.05
COc1cc([C@@H]2CC(=O)c3c(O)cc(O)cc3O2)ccc1O | · | 1.02
COc1ccc(-c2nn3cnnc3s2)cc1OC | 0.85 | -0.52
CCOc1nc(N)nc(N)c1S(=O)(=O)c1ccc(Cl)cc1 | -0.73 | -0.29
C#CCOc1ccc(C2CC(=O)Nc3c2c(C)nn3-c2nncc(-c3ccccc3)n2)cc1 (stereo not drawn) | -2.16 | 2.55
CCC(C)NC(=O)CCC(=O)N1CCOc2ccc(Cl)cc21 (stereo not drawn) | -1.14 | -1.6
Cc1ccc(C)c(N2CCN(C(=O)CCCc3nnc4n5nc(C)nc5c5ccccc5n34)CC2)c1 | 0.03 | 0.75
Cc1oc2ccc(O)cc2c1C(=O)O | 0.74 | 0.89
CSc1ccc(C2CC(=O)Nc3c2c(C)nn3-c2nc(C)cc(C)n2)cc1 (stereo not drawn) | -0.1 | 0.9
COc1cc(C2c3c(oc4ccc(C)cc4c3=O)C(=O)N2Cc2ccc(C)cc2)ccc1O (stereo not drawn) | 1.06 | 1.15
O=S1(=O)NC(=NCCc2ccccc2)c2ccccc21 | 1.71 | 1.32
COC(=O)c1c(C)oc2ccc(OC(=O)N3CCOCC3)cc12 | -1.17 | 1.13
c1ccc(CN2CCN(c3c4c(nc5ncnn35)CCCC4)CC2)cc1 | · | 0.79
COc1ccccc1CCN[C@H]1CS(=O)(=O)C[C@@H]1S(=O)(=O)c1cccs1 | -0.42 | -0.68
CC(C)c1ccc(C2c3c(-c4ccccc4O)n[nH]c3C(=O)N2CC2CCCO2)cc1 (stereo not drawn) | 0.18 | 0.39
Cc1onc(-c2ccccc2Cl)c1C(=O)OCn1nnc2ccccc2c1=O | -1.48 | ·
O=C(CSc1nc(-c2ccccc2)cc(=O)[nH]1)c1ccc(Cl)s1 | -5.33 | ·
CC12CC(NC(=O)N1c1cccc(C(=O)N3CCCC3)c1)c1ccccc1O2 (stereo not drawn) | -0.41 | ·
O=c1c2sccc2nc(SCc2cc(=O)n3ccccc3n2)n1Cc1ccccn1 | -0.06 | ·
O=C(CN1CC(=O)Oc2ccccc21)Oc1ccc(F)cc1 | -0.93 | -3.52
Cc1ccc(C)c(Cc2c(C)nc(N3CCN(C)CC3)[nH]c2=O)c1 | · | 0.66
Further records follow:
SMILES | CDC25B CDK2 inh | TAR Tat displ
Cc1ccccc1CSc1ncn[nH]1 | -1.09 | 0.74
CC(=O)N1CCc2c(sc3nc(SCC(=O)Nc4nccs4)n(-c4ccccc4)c(=O)c23)C1 | · | -1.35
COc1ccc(S(=O)(=O)N2CCc3cc4ccc(OC)cc4nc32)c(OC)c1 | -1.25 | 0.06
COc1ccc(-n2c(C)cc(CNC(=O)Nc3cc(OC)ccc3OC)c2C)cc1 | · | -1.7
Cc1cc2oc3c(c(=O)c2cc1C)C(c1cccc(O)c1)N(CCCN1CCOCC1)C3=O (stereo not drawn) | -0.77 | -0.52
O=C(O)c1cc(=O)c2c(Cl)cc(Cl)cc2[nH]1 | -1.67 | 0.87
Cc1cccc(Cn2c(SCC(C)O)nc3c2c(=O)[nH]c(=O)n3C)c1 (stereo not drawn) | -1.13 | 0.58
CCCOc1ccc(C2C(C(=O)OC)=C(C)NC3=C2C(=O)CCC3)cc1OC (stereo not drawn) | -2.68 | 1.37
Cc1cc(C)c(S(=O)(=O)NCc2cn3cccc(C)c3n2)cc1C | -0.88 | ·
CC(=O)N1c2ccc(S(=O)(=O)N3CCCC3)cc2CC1C(=O)NC1CCCCC1 (stereo not drawn) | · | 1.32
O=C(C1CCCN(c2nc3ncccc3n3cccc23)C1)N1CCC(N2CCCCC2)CC1 (stereo not drawn) | · | -0.32
Cc1cccc(COc2ccccc2C2CC(=O)Nc3c2c(C)nn3-c2ccc3nnc(C)n3n2)c1 (stereo not drawn) | · | 0.41
Cc1cc(C)c(Cn2cnc3ccccc32)c(C)c1 | -2.87 | 2.84
CC1(C)C2(Cl)C(Cl)C(Cl)C(Cl)(C(Cl)Cl)C1(Cl)C2Cl (stereo not drawn) | · | -2.26
Cc1ccsc1CNC(=O)Nc1ccc(F)cc1 | -0.84 | ·
COc1ccc(-c2cn3ccccc3n2)cc1 | 0.52 | -1.16
CCCNC(=O)N1CCN(c2ncccn2)CC1 | -3.21 | -0.28
CCOC(=O)c1c(NC(=O)CSc2nnc(C)c(=O)[nH]2)sc2c1CCC2 | -0.98 | -0.2
CC1CC(=O)Nc2cc(S(=O)(=O)N3CCCc4ccccc43)ccc2S1 (stereo not drawn) | · | 0.05
Cc1ccc(OCc2nn3c(-c4cccc(Cl)c4)nnc3s2)cc1 | 0.43 | 0.29
Fc1cccc(Cl)c1-n1cccc1 | -0.52 | ·
O=C(NC(=O)N1CCc2ccccc21)c1c(Cl)cccc1Cl | -2.22 | ·
COc1ccc(-c2noc(NCc3cccnc3)n2)cc1 | · | 1.36
CCOC(=O)c1c(C)oc2nc(C)nc(NCc3ccc(C)o3)c12 | · | 0.84
O=C(CSc1nnc2ccc(-c3ccccc3)nn12)N1CCN(c2ccccc2)CC1 | · | -0.1

Entries of single compounds from above.
`CCc1ccc(S(=O)(=O)NCCc2cn3ccsc3n2)cc1` as listed: CDC25B CDK2 inh = ·; TAR Tat displ = 0.6
`O=C(CSc1ncnc2c1sc1cccc(F)c12)N1CCOCC1` as listed: CDC25B CDK2 inh = ·; TAR Tat displ = -0.33
`O=C(NC(=O)N1CCc2ccccc21)c1c(Cl)cccc1Cl` as listed: CDC25B CDK2 inh = -2.22; TAR Tat displ = ·

The list goes on:
SMILES | CDC25B CDK2 inh | TAR Tat displ
CCOC(=O)c1c(C)oc2c1c1c(c3ccccc32)OCN(CCCC(=O)O)C1 | 6.15 | 16.5
COC(=O)C1=C(C)NC2=C(C(=O)CC(c3ccccc3Cl)C2)C1c1ccc(C)s1 (stereo not drawn) | -0.02 | 0.59
Cc1ccc(CNc2nc(NCCC(C)C)nc3c2cnn3C)cc1 | · | 0.81
CC1=C(c2cccc(Br)c2)S(=O)(=O)N=C1N1CCN(c2ccccn2)CC1 | -2.08 | 0.47
C=CCC1(NCc2ccco2)CCN(C)CC1 | 0.84 | ·
CCOC(=O)C1CCN(c2csc3ccccc3c2=O)CC1 | · | 1.52
CC1CC2(CC(C)(c3csc(Nc4ccccc4Cl)n3)OC2=O)C(=O)O1 (stereo not drawn) | -1.82 | ·
O=C(c1ccc2oc(=O)n(CC(=O)N3CCCc4ccccc43)c2c1)N1CCCC1 | · | 1.6
CC1=C(C(=O)OCc2ccccc2)C(c2cccs2)C2=C(CC(C)(C)CC2=O)N1 (stereo not drawn) | 1.81 | 0.39
CCCN1CNC(=S)N(c2ccccc2C)C1 | -1.73 | ·
CC(C)NC(=O)CSCc1cnn(-c2ccccc2)c1-n1cccc1 | -1.02 | 2.06
CC1(C)Cc2c(sc3ncn4nc(-c5ccccc5)nc4c23)C(C)(C)N1 | -0.22 | 0.06
Nc1ccc(Sc2nc3ccccc3n3nnnc23)cc1 | -1.54 | 0.73
COc1ccc(-c2nnc(SCCOc3ccccc3OC)o2)cc1 | 0.49 | 1.48
CCOC(=O)c1c(NC(=O)c2nc(SC)ncc2Cl)sc2c1CCC2 | -1.63 | 1.29
Cc1cc(NC(=O)/C=C\C(=O)O)c([N+](=O)[O-])cc1C | -1.71 | ·
COc1ccc(-n2nnc(-c3nc(-c4ccc(OC)c(OC)c4)no3)c2C)cc1Cl | · | -0.23
CC(C)CN(CC(C)C)S(=O)(=O)c1ccc2c(c1)CC(C)N2C(=O)C1CCC1 (stereo not drawn) | · | -0.45
CC1Cc2cc(S(=O)(=O)N3CCCc4ccccc43)ccc2N1C(=O)C1CCC1 (stereo not drawn) | · | -0.42
O=C(c1cccc(Br)c1)N1CCN(Cc2cc(=O)n3ccccc3n2)CC1 | · | 0.57
CC(C)CCNC(=O)C1(C)CCC(=O)N1Cc1ccc2c(c1)OCO2 (stereo not drawn) | -0.33 | -1.87
CCc1nnc2c3ccccc3nc(Nc3ccc(C)c(F)c3)n12 | · | 0.9
Cc1ccc2cc(CCNC(=O)C34CC5CC(CC(C5)C3)C4)c(=O)[nH]c2c1C | 0.2 | ·
O=C(c1ccccc1)c1ccc2c(c1)OCCO2 | -1.74 | 0.59
CC1=C(c2ccc(F)cc2)S(=O)(=O)N=C1Nc1ccc(Cc2ccncc2)cc1 | · | -0.38
(continued)
SMILES | CDC25B CDK2 inh | TAR Tat displ
COc1ccc(OC)c(NS(=O)(=O)c2cc3c4c(c2)C(C)C(=O)N4CCC3)c1 (stereo not drawn) | · | 1.26
CCN1C(=O)C(Cc2nc3ccccc3c(=O)n2-c2ccccc2)c2cc(Br)ccc21 (stereo not drawn) | -0.74 | 0.28
O=C(c1cc(-c2ccccc2)no1)N1CCCC1c1ccc(Cl)cc1 (stereo not drawn) | -1.66 | 0.85
COc1cccc(C2NC(=O)c3c(sc4c3CCN(C)C4)N2)c1OC (stereo not drawn) | -0.33 | -1.8
O=C1CC(c2nc3ccccc3n2Cc2ccc(F)cc2)CN1c1ccc(F)cc1 (stereo not drawn) | -2.32 | -1.22
COc1cc2c(cc1OC)CN(S(=O)(=O)c1cccc(Cl)c1)CC2 | -0.35 | ·
CN(C)Nc1ccc([N+](=O)[O-])c(NN(C)C)c1C#N | 0.68 | ·
Cc1c(C(=O)NCC(c2ccco2)N2CCOCC2)oc2ccccc12 (stereo not drawn) | 0.01 | 0.63
Brc1ccc(-c2nnc3sc(CNCCc4ccccc4)cn23)cc1 | · | 1.2
